# Screening data deposited in PubChem BioAssay by Vanderbilt University.
# GIRK2 act: activators of human GIRK2 potassium channels; AID 1259325, 2017; actives 0.05% (n = 63,000); HEK293-GIRK2 thallium flux, Thallos fluorescence; calls only for hits at 25 µM;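 active = among the strongest 0.2% of first-round signals and kept after retests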;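 note: first round at about 10 µM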
# Target sequence (P48051 whole entry, looked up): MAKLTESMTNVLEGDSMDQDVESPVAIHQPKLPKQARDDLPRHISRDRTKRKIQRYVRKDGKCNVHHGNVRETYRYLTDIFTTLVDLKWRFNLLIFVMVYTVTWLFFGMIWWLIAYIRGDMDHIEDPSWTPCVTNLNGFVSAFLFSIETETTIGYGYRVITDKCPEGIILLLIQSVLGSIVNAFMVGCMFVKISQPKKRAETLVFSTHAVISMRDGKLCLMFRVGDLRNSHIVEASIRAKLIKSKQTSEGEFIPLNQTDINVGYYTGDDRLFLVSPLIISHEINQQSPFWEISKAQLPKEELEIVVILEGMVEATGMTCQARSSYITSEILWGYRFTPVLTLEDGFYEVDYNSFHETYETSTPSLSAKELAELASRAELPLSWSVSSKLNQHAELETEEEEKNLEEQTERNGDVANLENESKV
# Calls only; i = inactive.
molecule | GIRK2 act
COc1cccc2cc(C(=O)CS(=O)(=O)c3ccc(C(C)(C)C)cc3)c(=O)oc12 | i
COC(=O)c1ccc(NC(=O)c2cc(=O)c(OCc3cccc(OC)c3)cn2C)cc1 | i
O=S(=O)(NCC(O)c1ccc2c(c1)CCO2)c1ccc(Cl)s1 (centres undefined) | i
CC1=CC(=O)CC2C1(C)CCC(C)C2(C)CCC(C)CC(=O)O (centres undefined) | i
Cc1ccc(C)c(COc2ccc(N3CCn4c3nc3c4c(=O)n(C)c(=O)n3C)cc2)c1 | i
O=C(NCC(Cc1cccc(F)c1)n1cccc1)c1ccc(=O)oc1 (centres undefined) | i
CCOc1ccc(-c2ccc(=O)n(C(C)C(=O)N3CCOCC3)n2)cc1 (centres undefined) | i
O=C(Cc1cccs1)Nc1ccc(SCC(=O)N2CCCC2)nn1 | i
O=C(NNC(=O)c1cccn(Cc2cccc(F)c2)c1=O)Nc1ccc2c(c1)OCO2 | i
COc1cccc2sc(N3CC(OC(=O)Cc4cccs4)C3)nc12 | i
CCN(CC)CCNc1nc(N)c([N+](=O)[O-])c(N2CCOCC2)n1 | i
Cc1ccc(N2CCN(CC(=O)NCC(C)O)C2=O)cc1 (centres undefined) | i
CC(C)(C)c1noc(C2CC(=O)N(Cc3ccco3)C2)n1 (centres undefined) | i
O=C(C1c2ccccc2Oc2ccccc21)N1CCC(Cn2ccnc2)CC1 | i
COC(=O)c1ccc(NC(=O)CCCCCn2nnc3ccccc3c2=O)cc1 | i
O=C1CC(c2nc(-c3ccccc3)no2)CN1c1ccc2c(c1)OCCO2 (centres undefined) | i
Cc1cc(SCC(=O)Nc2ccc3c(c2)OCO3)nc(-c2cnccn2)n1 | i
CC/C=C\C/C=C\C/C=C\CCCCCCCC(=O)O | i
Cc1cc(=O)n(CC(=O)Nc2ccc3c(c2)OCO3)c(N)n1 | i
CCOC(=O)C1CCN(Cc2cc(=O)oc3cc4c(cc23)OCO4)CC1 | i
O=C(CCS(=O)(=O)c1ccccc1)Nc1ccccc1NC(=O)c1ccccc1F | i
CC(C)(C)NC(=O)N(Cc1ccsc1)CC(F)(F)F | i
Cc1ccc(NC(=O)CSc2nccn2-c2ccc(C(=O)NCc3ccc(C)o3)cc2)cc1 | i
COc1ccccc1NC(=O)Nc1ccc(Nc2ccc(-n3nc(C)c(C)c3C)nn2)cc1 | i
COc1ccc(Cl)cc1C(=O)N1CC2CC1C(=O)O2 (centres undefined) | i
CS(=O)(=O)c1ccc(Nc2nc(C(=O)NCc3ccco3)cs2)cc1 | i
CC(C(=O)NCCNC(=O)c1ccc(NC(=O)C(C)(C)C)cc1)n1nc(-n2cccn2)ccc1=O (centres undefined) | i
Cc1ccc(S(=O)(=O)c2nc(S(=O)(=O)c3ccccc3)sc2N2CC(C)OC(C)C2)cc1 (centres undefined) | i
CCOC(=O)c1ccccc1NC(=O)Cn1c(=O)n(Cc2ccc(F)cc2)c(=O)c2nccnc21 | i
COCCn1c(=O)c2c(nc3n(C4CCCCC4)c(C)c(C)n23)n(C)c1=O | i
COc1ccc(C2C(=C(O)c3ccncc3)C(=O)C(=O)N2CCCN2CCOCC2)cc1 (centres undefined) | i
O=C(NCCc1nc2c(c(C(F)(F)F)n1)CCCC2)c1cccnc1 | i
CC(C)(C)OC(=O)COc1ccc2c(c1)O/C(=C\c1ccc([N+](=O)[O-])cc1)C2=O | i
C#CCOCC1CCN(C(=O)NCCc2ccc(OC)cc2)CC1 | i
O=C(NCc1ccccn1)C1CCN(c2ccc(-c3ccccc3)nn2)CC1 | i
CCOc1ccc(-c2ccc(=O)n(Cc3nc(-c4ccc(OCC)c(OC)c4)no3)n2)cc1 | i
COc1ccc(-n2nncc2CN2CCN(C(=O)c3ccc4[nH]ccc4c3)CC2)cc1F | i
O=C(CSc1nccn2nc(-c3ccccc3)cc12)Nc1ccc(Cl)cc1C(F)(F)F | i
Cc1nc2ccc(NC(=O)c3ccc(S(=O)(=O)N(C)C)cc3)cc2c(=O)n1-c1ccc(F)cc1 | i
O=C(Nc1oc2ccccc2c(=O)c1-c1ccc2c(c1)OCO2)c1ccco1 | i
O=C(Nc1ccc(F)cc1F)NC1CCN(Cc2noc(-c3ccccc3)n2)C1 (centres undefined) | i
O=C(NCC(O)C1CCCCC1)c1cnccn1 (centres undefined) | i
Cc1cccc(CNC2CCN(c3ccc(C(=O)Nc4ccccc4)cn3)C2)c1 (centres undefined) | i
Cc1ccc2[nH]c3c(=O)n(CC(=O)NCCc4cccs4)cnc3c2c1 | i
Cc1cc(C)n(CCNC(=O)c2ccc(-n3cccn3)nn2)n1 | i
COc1ccc(NC(=O)Cn2ccnc2-c2ccnc(N3CCSCC3)c2)cc1OC | i
O=C(Nc1cnc(N2CCOCC2)nc1)c1ccc(Br)o1 | i
Cc1c(C)n2c3c(=O)n(CC(C)C)c(=O)n(C)c3nc2n1CCN1CCOCC1 | i
CCOc1ccc(-n2nnc3c(=O)n(Cc4nc(-c5cccc(C(F)(F)F)c5)no4)cnc32)cc1 | i
COc1nn(C)cc1C(=O)N1CCN(CC(O)C2CC2)CC1 (centres undefined) | i
COc1ccc(CNC(=O)c2nnn(-c3ccc(C)cc3)c2-c2cccnc2)cc1 | i
COc1ccc(C(=O)Nc2cc(C3CC3)nn2-c2nc(C)c(C)c(=O)[nH]2)cc1OC | i
COc1ccc(CNC(=O)Cn2cc(-c3nc(-c4ccc(Cl)cc4)no3)ccc2=O)cc1 | i
Nc1nc(NCc2ccco2)ncc1[N+](=O)[O-] | i
Cn1c(=O)c2ccc(-c3cccs3)nc2n1CC(=O)N1CCN(c2ccccc2)CC1 | i
Cc1ccc(N2CCCS2(=O)=O)cc1NS(=O)(=O)c1c(C)noc1C | i
CCOC(=O)c1sc(NC(=O)c2ccncc2)c(C(=O)OCC)c1C | i
C=CCOCC(O)Cn1c(N/N=C(/C)c2ccccc2)nc2c1c(=O)n(C)c(=O)n2C (centres undefined) | i
COc1ccc(Cn2c(-n3nc(C)cc3C)nc3c2c(=O)n(CC(C)C)c(=O)n3C)cc1 | i
Cc1nc(C)n2c(=O)n(CC(=O)Nc3ccccc3C(F)(F)F)nc2c1C | i

# More structures follow.
molecule | GIRK2 act
CN(C)CCNC(=O)NCC12CC3CC(CC(C3)C1)C2 | i
Cc1cc(NC(=O)C23CC4CC(C2)CC(c2ccccc2)(C4)C3)no1 | i
COc1ccc(Cn2cc(S(=O)(=O)N3CCCCC3)ccc2=O)cc1F | i
CN(C)CCN(C(=O)c1ccco1)c1nc2c(S(C)(=O)=O)cccc2s1 | i
CSc1ncccc1C(=O)N1CCOC(c2ccccc2)C1 (centres undefined) | i
COc1ccc(-c2nnc(NC(=O)c3cc(C)nn3C)o2)cc1OC | i
O=C(NCc1cccs1)c1ccc(Cn2cnc3ccccc32)o1 | i
N#Cc1cccc(C(=O)N2CC(c3nc(-c4cccs4)no3)C2)c1 | i
COc1cccc(C(=O)N2CCN(Cc3c(C)noc3C)CC2)c1OC | i
O=C(NCc1cccnc1)C1CCCN(c2ccc(Sc3ccc(Br)cc3)nn2)C1 (centres undefined) | i
COCCOC(=O)c1c(C)oc2ccc(OS(=O)(=O)c3ccc(OC)cc3)cc12 | i
COc1ccccc1NC(=O)NCC#CCN1CCCC1 | i
Cn1cc(-c2cccs2)nc1CCNC(=O)c1cc(C2CC2)on1 | i
O=C(CSc1ccc2ccccc2n1)Nc1cccc(Cl)c1 | i
O=c1[nH]c(N2CCN(C3CCCCC3)CC2)nc2c(-c3ccc(F)cc3)csc12 | i
O=C(c1ccoc1)N1CCC(CNS(=O)(=O)c2c(F)cccc2F)CC1 | i
OC(COc1ccc(Br)cc1Br)CN1CCCCC1 (centres undefined) | i
CN(CC(=O)N1CCN(c2ccccn2)CC1)c1nc2ccccc2s1 | i
CCCCCCCC/C=C\CCCCCCCCCCCC(N)=O | i
Cn1nc(-c2ccccc2)cc1C(=O)N1CCC(C(=O)Nc2nccs2)CC1 | i

# Additional structures
molecule	GIRK2 act
CC(C)c1nccn1CC1CCN(C(=O)C2CCN(S(C)(=O)=O)CC2)CC1	i
COc1cccc(Cn2c(=O)c3sccc3n(Cc3nc(-c4ccccc4OC)no3)c2=O)c1	i
O=C(c1c(F)cccc1Cl)N1CCC(Oc2ccc(C(F)(F)F)cn2)CC1	i
O=C(c1ccccc1)N1CCN(S(=O)(=O)c2cc3c4c(c2)CCC(=O)N4CCC3)CC1	i
COc1ccc(N2CCCn3c2nc2c3c(=O)n(CC(C)=O)c(=O)n2C)cc1Cl	i
Cc1onc(-c2ccccc2Cl)c1C(=O)NCC(O)c1ccoc1 (centres undefined)	i
COc1ccc(Cl)cc1NC(=O)Cn1c(C)nc(-c2ccccn2)cc1=O	i
O=C(Nc1cc2c3c(c1)CCN3C(=O)CC2)c1ccc2c(c1)OCO2	i
CC(C)N(C(=O)CN1CCN(Cc2nc3ccccc3[nH]2)CC1)C(C)C	i
Cn1c(=O)c2[nH]c(SCC(=O)Nc3ccc(Cl)cc3Cl)nc2n(C)c1=O	i
Cc1cc(N2CCN(C(=O)Nc3ccc4c(c3)OCCO4)CC2)ncn1	i
O=C(NCC1(c2cccs2)CCOCC1)c1c(F)cccc1Cl	i
Cc1cc(C(O)CCNC(=O)/C=C/c2ccccc2)c(C)o1 (centres undefined)	i
CC(C)(C)c1ccc(NC(=O)CSc2nc3[nH]ncc3c(=O)n2-c2ccccc2)cc1	i
CS(=O)(=O)C1CCN(C(=O)Cc2ccccc2Cl)C1 (centres undefined)	i
O=C(CNC(=O)c1c[nH]c2ccccc12)Nc1cc(Cl)ccc1O	i

# Part of the list above, field by field.
CCOC(=O)c1sc(NC(=O)c2ccncc2)c(C(=O)OCC)c1C
- GIRK2 act: i
O=C(Nc1ccc(F)cc1F)NC1CCN(Cc2noc(-c3ccccc3)n2)C1 (centres undefined)
- GIRK2 act: i
O=C(CSc1nccn2nc(-c3ccccc3)cc12)Nc1ccc(Cl)cc1C(F)(F)F
- GIRK2 act: i
Cc1nc2ccc(NC(=O)c3ccc(S(=O)(=O)N(C)C)cc3)cc2c(=O)n1-c1ccc(F)cc1
- GIRK2 act: i

# Exported with the structure last: part of the list above
GIRK2 act,Molecule
i,CC(C)N(C(=O)CN1CCN(Cc2nc3ccccc3[nH]2)CC1)C(C)C
i,Cn1c(=O)c2[nH]c(SCC(=O)Nc3ccc(Cl)cc3Cl)nc2n(C)c1=O
i,Cc1cc(N2CCN(C(=O)Nc3ccc4c(c3)OCCO4)CC2)ncn1
i,O=C(NCC1(c2cccs2)CCOCC1)c1c(F)cccc1Cl
i,Cc1cc(C(O)CCNC(=O)/C=C/c2ccccc2)c(C)o1 (centres undefined)
i,CC(C)(C)c1ccc(NC(=O)CSc2nc3[nH]ncc3c(=O)n2-c2ccccc2)cc1
i,CS(=O)(=O)C1CCN(C(=O)Cc2ccccc2Cl)C1 (centres undefined)

# Next section
molecule	GIRK2 act
O=c1c2cccnc2nc(SCc2cc(=O)n3ccccc3n2)n1Cc1ccc(F)cc1	i
COc1c(N2CCNC(C)C2)c(F)cc2c(=O)c(C(=O)O)cn(C3CC3)c12 (centres undefined)	i
O=C(NC1CCCCC1)N1CCC2(CC1)OCCCO2	i
COc1ccc2nc(-n3nc(C)cc3NC(=O)c3cccc(OC)c3OC)sc2c1	i
CS(=O)(=O)N1CCCC(c2nnc(Cc3ccccc3)s2)C1 (centres undefined)	i
COC(=O)c1cn(Cc2ccccc2Cl)nc1S(=O)(=O)N(C)c1ccc(C)cc1	i
Cc1ccc(C)c(S(=O)(=O)NCc2sc(-c3ccccc3)nc2C)c1	i
CCOc1cc(CC(=O)N[C@@H](CC(C)C)c2ccccc2N2CCCCC2)ccc1C(=O)O	i
O=C(Nc1sccc1-c1nc2ccccc2s1)c1cnccn1	i
Cc1cn2c3c(=O)n(CCN4CCOCC4)c(=O)n(C)c3nc2n1-c1ccc(C(F)(F)F)cc1	i
O=C(NCc1nc2ccccc2[nH]1)c1csc(Nc2ccccc2)n1	i
COc1cccc2cc(C(=O)N3CC(c4nc5ccc(C)cc5[nH]4)C3)c(=O)oc12	i
COC1CC(O[C@H]2CC[C@]3(C)C4CC[C@@]5(C)C(=O)[C@]4(CC[C@@H]3C2)CC[C@@H]5C2=CC(=O)OC2)OC(C)C1OC1OC(COC2OC(CO)C(O)C(O)C2O)C(O)C(O)C1O (some centres undefined)	i
CNc1nn(CC(=O)Nc2ccc(Br)c(C)c2)c(N)c1-c1nc(-c2ccccc2)no1	i
CN(CC(=O)NCc1cccnc1)c1nc2c(C(F)(F)F)cccc2s1	i
COc1ccc(C(=O)Nc2ccc(-n3nnc(C(=O)N4CCCC4)n3)cc2)cc1	i
O=c1[nH]c2nc(NC3CCc4ccccc43)ncc2c(=O)n1Cc1ccccc1F (centres undefined)	i
O=C(/C=C/c1ccco1)N1CC(Oc2nc3c(C(F)(F)F)cccc3s2)C1	i
Cc1nc(-n2cccc2)sc1C(=O)N1CC(c2nc(-c3cccc(Cl)c3)no2)C1	i
Cn1cccc1CN(Cc1cccs1)C(=O)/C=C/c1ccco1	i
O=C(CCCSc1ccc(F)cc1)N(Cc1ccccn1)c1nc2ccc([N+](=O)[O-])cc2s1	i
NC(=O)Cc1csc(Nc2ncccn2)n1	i
Cc1[nH]c(=O)c(C#N)cc1-c1ccncc1	i
Cc1ccc(-n2cc(C(=O)OCC(=O)OC(C)C)c3ccccc3c2=O)cc1	i
COc1ccc(NC(=O)c2ccccc2NS(=O)(=O)c2ccc(Cl)cc2)c([N+](=O)[O-])c1	i
O=c1c(-c2ccc(Br)cc2)coc2cc(O)ccc12	i
Cc1cc(CCNC(=O)CCSc2ccccc2)on1	i
O=C(c1ccc(S(=O)(=O)N2CCCC2)cc1)N1CCC(Oc2ncccc2Cl)CC1	i
CCc1nc2oc3ccccc3c(=O)c2c(=O)n1CCc1ccccc1	i
COc1ccc(NS(=O)(=O)c2cccc(F)c2)cc1N1CCCCC1=O	i
O=C(Cc1csc(-n2cccc2)n1)N1CCn2c1nc1ccccc12	i

# A portion of the library (hit frequency here may not be typical).
